PK Bst: modulators of Bacillus stearothermophilus pyruvate kinase; partly purified Bacillus stearothermophilus pyruvate kinase, luminescence ATP production; ribose 5-phosphate activator present at AC10; hit rate 1.2% among 51,000; Potency, µM; in the data active means potency below about 11 µM; inconclusive means mostly about 12 µM to 25 µM; inactive means weaker than that;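 the screen sought inhibitors and activators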;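 note: potency is the fitted concentration of half-maximal effect; scaled between full activation by ribose 5 phosphate and full inhibition by luteolin; about four in five hits inhibit and the cells do not say which; series up to 57 µM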
YjeE inh: inhibitors of E. coli YjeE (TsaE). P0AF67. purified YjeE, fluorescence polarisation of a bound ADP probe. Potency, µM. hit rate 0.05% among 71,000; active = well fitted falling curve; inconclusive = weaker or top-dose-only fall, or a rising curve; inactive = flat or poorly fitted curve;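 note: top concentration of the series not given in the record; excess ADP was the control for the full effect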
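Fluorescence polarization of a BODIPY Texas Red–ADP probe (2 uM) bound to purified YjeE (10 uM) was read after 15 min room-temperature incubation with compounds. Loss of polarization marks inhibitors; ADP serves as titrated control.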
An asterisk follows results filed as active; i = inactive; x = no result given.

compound	PK Bst	YjeE inh
Cc1ccc(-n2nc(C)c3c(-c4cccs4)c(C#N)c(N)nc32)cc1	x	i
OC1CCCCC1Sc1nc2ccccc2s1 (configuration not stated)	>57	i
O=C1C(=O)N(CCCn2ccnc2)C(c2cccnc2)/C1=C(/O)c1ccc(F)cc1 (configuration not stated)	x	i
CN(c1ccc(C(=O)Nc2cccnc2)cc1)S(C)(=O)=O	>57	i
COc1ccc(C=NCCCN2CCOCC2)cc1	>11	x
CC(NC(=O)c1ccccc1Cl)C1COc2ccccc2O1 (configuration not stated)	>57	i
O=c1c2ccccc2nnn1CSc1nc2sc3c(c2c(=O)n1CC1CCCO1)CCC3 (configuration not stated)	>57	i
COc1ccccc1CNC(=O)CCn1c(=O)[nH]c2ccsc2c1=O	>57	i
CCC(C)(C)n1nnnc1C(c1cccc(C#N)c1)N1CCN(c2cccc(C)c2C)CC1 (configuration not stated)	>57	i
Cc1ccc(Nc2cc(C)nc3nc(C)nn23)cc1	x	i
COc1ccc(Cc2nnc(SCC(=O)Nc3ncc(C)s3)o2)cc1	>57	i
Cc1cc(C(F)(F)F)c2sc(N)nc2n1	x	i
Cn1ccc2cc(NC(=O)Nc3cccnc3)ccc21	x	i
CC(C)(S)[C@H](N)C(=O)O	x	i
CCOC(=O)NC1(C(F)(F)F)NC(=O)N(C2CCCCC2)C1=O (configuration not stated)	>57	i
COc1ccc(Oc2ncc3ncc(=O)n(Cc4cccs4)c3n2)cc1	x	i
COC(=O)c1cc(C(=O)OC)cc(-n2c(C)cc(C(=O)CC#N)c2C)c1	>57	i
O=C1NC(c2cccc([N+](=O)[O-])c2)=CCN1c1ccccc1O	x	i
O=C1CC(N2CCOCC2)C(=O)N1c1ccccc1Cl (configuration not stated)	>57	i
O=C1NCCN1C(=O)C12CC3CC(CC(C3)C1)C2	>57	i
Cc1cc2nc(SCCN3CCCC3)[nH]c2cc1C	x	i
O=c1cc(-c2ccccc2)nc2nc(SCc3ccccc3)[nH]n12	>57	i
CC(C)CNS(=O)(=O)c1ccc(C(=O)Nc2ccc3c(c2)OCCO3)cc1	>57	i
O=C(CS(=O)(=O)Cc1ccccc1)N1CCc2ccccc2C1	x	i
Cc1ccc(C)c(N2CCN(C(=O)COc3cc(=O)n(C)c4ccccc34)CC2)c1	>57	i
CC(=O)NC1C(=O)N(CCc2ccccc2)c2ccccc21 (configuration not stated)	x	i
CC(=O)N[C@@H](CS)C(=O)O	>26	x
Cc1noc(C)c1COC(=O)CCCc1nc2ccccc2s1	>57	i
CCn1c(SCC#N)nc2c(c1=O)C1(CCCC1)Cc1ccccc1-2	>57	i
O=C(CSc1nc2ccccc2c(=O)[nH]1)c1ccc(O)c(O)c1	>57	i
CCOC(=O)c1ccc(NC(=O)C2C3C=CC(C3)C2C(=O)O)cc1 (configuration not stated)	x	i
Cc1c2c(nc3c(C)cccc13)OC(C)C2 (configuration not stated)	>57	i
c1ccc(-c2cc(N3CCCCCC3)n[nH]2)cc1	x	i
COC(=O)CSC1=C(C#N)C(=O)NC2(CCCCC2)S1	>26	x
c1ccc2c(c1)nc(-c1ccncc1)n1nnnc21	8.9*	i
C(=C\c1ccccc1)/CN1CCN(C(c2ccccc2)c2ccccc2)CC1	>26	x
COc1cc(-c2nc3ccccn3c2NCC2CCCO2)ccc1O (configuration not stated)	>57	i
CCNc1ncc2nc(-c3ccc(OC)cc3)c(=O)n(CCc3ccccc3)c2n1	x	i
COCCOC(=O)c1c(C)oc2ccc(OCc3cc(C(=O)OC)oc3C)cc12	>57	i
O=C(CNc1ccc(Oc2ccccc2)cc1)N1CCOCC1	>57	i
O=C(Nc1cccc2ccccc12)c1ccccc1	x	i
O=C(CCN1CCN(c2ccccc2)CC1)Nc1nccs1	>57	i
Cc1cc(NC(=O)c2ccc(Cl)cc2)no1	x	i
CCOC(=O)c1c(C)nc2sccn12	>11	i
COCc1cc(=O)[nH]c(Nc2nc(C)c3ccc(C)cc3n2)n1	>57	i
CCOc1ccc(-c2cc(C(=O)N3CCN(C)CC3)c3ccccc3n2)cc1	3.1*	i
CC1CCCN(C(=O)CSc2nnc(-c3ccc(S(=O)(=O)N4CCOCC4)cc3)n2C)C1 (configuration not stated)	>57	i
Cc1ccc(S(=O)(=O)CCc2nc3ccccc3n2CCC#N)cc1	x	i
O=C(NCCc1ccccn1)C1CC(=O)N(Cc2ccccc2Cl)C1 (configuration not stated)	>57	i
CCC(C)(C)NC(=O)CN(C(=O)c1snc(C(N)=O)c1N)c1ccc2c(c1)OCO2	>57	i
O=C(NCc1ccc(F)cc1)c1noc2c1CCCC2	>57	i
COc1ccc(N2C(=O)CC(N3CCN(c4ccc(S(=O)(=O)N5CCCC5)cc4)CC3)C2=O)cc1 (configuration not stated)	>57	i
Cc1noc(C)c1C(=O)N1CCC2(CCN(Cc3ccccc3)CC2)CC1	x	i
Cn1c(=O)[nH]c(=O)c2c1nc(N1CCNCC1)n2CCOc1ccccc1	>57	i
COc1ccc2[nH]cc(CCNc3ncnc4ccc(-c5c(C)noc5C)cc34)c2c1	x	i
CCc1ccc(NC(=O)CS(=O)CC(=O)NC(C)CCc2ccco2)cc1 (configuration not stated)	>57	i
CCSc1nc(-c2ccco2)ccc1C#N	>57	i
O=C(CN(Cc1ccc2c(c1)OCO2)C(=O)CSc1nc2ccccc2o1)NC1CCCCC1	>57	i
COc1cc(S(C)=O)ccc1-c1nc2ncccc2[nH]1 (configuration not stated)	x	i
CCOC(=O)c1c(-c2ccc(C)cc2C)csc1NC(=O)CSc1nnnn1C	>57	i

(further entries)
compound	PK Bst	YjeE inh
COc1cc(NC(=O)c2ccc3c(=O)n(Cc4ccco4)c(=S)[nH]c3c2)cc(OC)c1OC	>57	i
Cc1nc2cnc(N(C)C)nc2n(C[C@H]2CCCO2)c1=O	x	i
O=C(c1cccc(F)c1)N1CCC2(CC1)CN(c1ncccn1)C2	x	i
C/C(=C\c1ccccc1)CN1CCN(c2ccccc2)CC1	x	i
Cc1nc(/C=[N+](\[O-])C(C)(C)/C=N/O)n(O)c1C	>57	i
Cn1c(=O)c2[nH]c(SCc3ccccn3)nc2n(C)c1=S	x	i
FC(F)C(F)(F)C1=CC(c2ccccc2)=NCCN1	x	i
COc1ccc2[nH]c(=O)c3c(c2c1)OC(C)(C)C=C3	x	i
COC(=O)N1[C@H](Cc2ccccc2)C=C[C@]1(C)C(=O)NCc1ccc(N(C)C)cc1	x	i
COc1ccc(CNc2ncnc3ccc(-c4cccc(NS(C)(=O)=O)c4)cc23)c(OC)c1	x	i
O=C(Nc1ccc(S(=O)(=O)N2CCOCC2)cc1)c1ccco1	>57	i
Cc1cccc(OCC(=O)Nc2ccc(S(=O)(=O)N3CCCC3)cc2)c1	x	i
COc1ccc(C/C(O)=C(\C#N)c2nc3ccccc3s2)cc1	>57	i
Nn1c(SCC(=O)NC2CCCCC2)nnc1-c1ccccc1	>57	i
Cc1ccc(-c2c3c(=O)n(C)c(=O)n(C)c3cn2Cc2cccnc2)cc1	>57	i

An excerpt of these results, field by field.
> O=C(c1cccc(F)c1)N1CCC2(CC1)CN(c1ncccn1)C2
  PK Bst: x	YjeE inh: i

> C/C(=C\c1ccccc1)CN1CCN(c2ccccc2)CC1
  PK Bst: x	YjeE inh: i

> Cc1nc(/C=[N+](\[O-])C(C)(C)/C=N/O)n(O)c1C
  PK Bst: >57	YjeE inh: i

(listing goes on)
compound	PK Bst	YjeE inh
CCc1nnc(NC(=O)c2ccc(N(C)S(=O)(=O)c3ccccc3)cc2)s1	>57	i
O=C(Cn1ncc2c1-c1ccccc1OC2)N(Cc1ccco1)C1CCCCC1	x	i
CC1=C(C(=O)NCCN2CCOCC2)C2(CCC(C)CC2)OC1=O (configuration not stated)	x	i
CCC(CO)N=CC1=C(O)CC(C)(C)CC1=O (configuration not stated)	x	i
O=C(Nc1ccccc1)N1CC2(CCN(S(=O)(=O)c3ccccc3)CC2)C1	x	i
Cc1ccc(S(=O)(=O)Nc2cc(C)nn2-c2ccccc2)cc1	>57	i
O=C(COC(=O)C1=COCCO1)Nc1ccccc1Oc1ccccc1	>57	i
Cc1c(NC(=O)c2c(F)cccc2F)c(=O)n(-c2ccccc2)n1C	>57	i
O=c1c(O)c(-c2ccc(O)c(O)c2)oc2cc(O)ccc12	x	i
CS/C(=N\S(=O)(=O)c1cccs1)NC(=O)CSc1nc2ccccc2s1	>57	i
Cc1cc(C)cc(N)c1	x	i
COc1ccccc1N1CCN(c2ccc(-c3ccccc3)nn2)CC1	1.6*	i
[N-]=[N+]=CC(=O)COC(=O)c1ccccc1	x	i
CCC(CC)C(=O)Nc1c2c(nn1-c1ccc(OC)cc1)CS(=O)(=O)C2	>57	i
COc1ccccc1CNC(=O)c1ccc(S(=O)(=O)N2CCCC2)cc1	>57	i
COc1ccc(C(=O)OCC(=O)c2cc(OC)ccc2OC)c(OC)c1	>57	i
CCOC(=O)N1CCC(Nc2c(NCCN3CCN(c4cccc(Cl)c4)CC3)c(=O)c2=O)CC1	x	i
C=C(C)COc1ccc(-c2n[nH]c(C)c2-c2ccccc2OC)c(O)c1	>57	i
Cc1ccc2[nH]c(=O)c(CN(C)C(=O)c3ccccn3)cc2c1	>57	i
Cc1nn(-c2ccccc2)c2sc(C(=O)N3CCCCC3)cc12	>57	i
Cc1cc(NC(c2cccnc2)c2ccc3cccnc3c2O)no1 (configuration not stated)	>57	i
CN1C(=O)C2(OCC(COc3ccc(Cl)cc3)O2)c2ccccc21 (configuration not stated)	>57	i
O=S(=O)(NCc1ccco1)N1CCCCCC1	>57	i
Cc1cccc(N2CCN(CCNC(=O)c3cc4c(s3)CS(=O)(=O)C4)CC2)c1C	>57	i
COc1ccc(-c2noc(CCC(=O)NCc3cccnc3)n2)cc1	>57	i
Cc1ccccc1-c1nnc(SCC(=O)Nc2ccc(Cl)cc2)n1N	>57	i
Cc1cc(C)c(OCC(=O)Nc2cccc(NC(=O)c3ccco3)c2)c(Br)c1	x	i
O=C(O)c1cccn2c(=O)c3ccccc3nc12	>57	i
Cc1ccccc1CSc1nnc(-c2ccco2)n1Cc1ccco1	i	i
CC(C)C[C@H](N)C(=O)O	x	i
Cc1c(C(=O)N2CCOCC2)oc2ccc(S(=O)(=O)N3CCCCCC3)cc12	>57	i
Nc1nc2ccccc2n1C(=O)CCc1ccccc1	>57	i
CCCCn1c(CN(Cc2ccccc2)Cc2ccccc2)nc2c1c(=O)n(C)c(=O)n2C	>57	i
c1ccc(CNc2nc(-c3ccc4c(c3)OCO4)nc3ccccc23)cc1	x	i
O=c1c(-c2ccc(Cl)cc2)nc2cnc(Nc3ccccc3)nc2n1C[C@H]1CCCO1	x	i
COc1cccc(C(=O)N2CCSC2=S)c1	x	i
CS(=O)(=O)C1=C(O)C(=O)N(CCCC(=O)O)C1c1ccccc1F (configuration not stated)	>57	i
OCCNc1ncnc2ccc(Br)cc12	x	i
CS(=O)(=O)Nc1ccc(S(=O)(=O)NCCc2ccccc2)cc1	>57	i
CC1C(=O)CC(c2ccccc2)N(C)C1c1ccccc1 (configuration not stated)	x	i
CC1CN(S(=O)(=O)c2ccccc2)CC(C)O1 (configuration not stated)	>57	i
Cc1ccc(C)c(-n2c(Cc3cc(=O)[nH]c(=O)[nH]3)nnc2SCC(=O)NCc2ccco2)c1	>57	i
O=C(NCCN1CCOCC1)C1CCC(=O)N1Cc1ccccc1Cl (configuration not stated)	>57	i
CCOC(=O)C1=C(N)Oc2cc(C)[nH]c(=O)c2C1c1ccncc1 (configuration not stated)	>57	i
COc1ccc(OC)c(NC(=O)c2[nH]c(C)c(C(C)=O)c2C)c1	>57	i
c1cc2cn[nH]c2cc1NC1CCCCCC1	x	i
CCCNC(=O)CCC(=O)Nc1ncc(-c2ccc(C)cc2)n1C	>57	i
O=C(O)C1[C@H]2C(=O)N(Cc3cccs3)C[C@]23C=C[C@H]1O3 (some centres not stated)	>11	x
Cc1oc(/N=C/c2c(O)ccc3ccccc23)c(C#N)c1C	x	i
COc1ccc(OC)c(-c2nnc(NC(=O)C(C)Sc3nncn3C)s2)c1 (configuration not stated)	x	i
O=C(c1cccc(N2C(=O)C3CC=CCC3C2=O)c1)N1CCCCCC1 (configuration not stated)	>57	i
Cn1c(=O)[nH]c(=O)c2c1ncn2CCCc1ccccc1	>57	i
OC(CNCCc1ccc(Cl)cc1)COCc1ccco1 (configuration not stated)	>57	i
COCCCNC(=O)CCNS(=O)(=O)c1ccc(C)cc1	>57	i
CC1CN(Cc2nc3c(c(=O)n(C)c(=O)n3C)n2CCc2ccccc2)CC(C)O1 (configuration not stated)	>57	i
COc1ccc(S(=O)(=O)N2CCCCCC2)cc1C(=O)OCC(=O)NC(N)=O	>57	i

By substructure: the compounds so far with bromine (2)
compound	PK Bst	YjeE inh
Cc1cc(C)c(OCC(=O)Nc2cccc(NC(=O)c3ccco3)c2)c(Br)c1	x	i
OCCNc1ncnc2ccc(Br)cc12	x	i

Screens: PubChem, National Center for Advancing Translational Sciences (NCATS)

An excerpt; rates above refer to the full screens.
